TDP1 inh: blocks human tyrosyl-DNA phosphodiesterase 1; recombinant TDP1, AlphaScreen DNA substrate cleavage; Potency, µM (doses to about 130 µM), without a hit: at the highest dose activity change, negative = inhibition, most hits filed as inhibitors; actives 0.28% (n = 350,000); AID 485290; note: nearly all actives have a fitted effect of over 40% in size
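Recombinant E. coli-expressed Tdp1 (1 nM) preincubated with compound 15 min at RT, then 5'-biotin/3'-phosphotyrosine-FITC DNA substrate (15 nM) added for 5 min. AlphaScreen beads (10 ug/ml) added, 10 min RT; tyrosine-FITC cleavage read as signal loss.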
FEN1 inhibitor: inhibitors of human flap endonuclease 1; Recombinant FEN1 flap cleavage, fluorescence, 15 min; Potency, µM (top dose mostly 114 µM), inactives show top-dose activity change, negative = inhibition, most hits filed as inhibitors; actives 0.35% (n = 390,000); note: nearly all actives have a fitted effect of over 65% in size
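Potency values derive from four-parameter Hill fits of normalized qHTS data. The reaction used 10 nM FEN1 preincubated 15 min at room temperature with compound, then 50 nM DNA substrate, read at 0 and 15 min.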
Active calls of the source: *; ? = inconclusive; nt = not tested or not shown; & = joins results of further samples. Calls come from the whole dose curve; as a rule, active = well fitted inhibition curve with a large enough effect; inconclusive = small, poorly fitted or top-dose-only effect; inactive = no such curve, though single readings can be large or run the other way. % is set by controls: 0 for no effect and ±100 for the full control effect; potency is the fitted concentration of half-maximal effect. Not all compounds are listed; most or all hits stand in other tables.

1	O[C@H]1[C@H](O)[C@@H](O)CN2CC[C@H](O)[C@H]12
2	Cc1c(C)c2ccc(OCC(=O)N3C[C@H]4C[C@@H](C3)c3cccc(=O)n3C4)c(C)c2oc1=O
3	O=c1[nH]c(=O)n(C2CCCCCC2)c(O)c1C=NC1CCN(Cc2ccccc2)CC1
4	CC(=O)Nc1ccc(C(c2c(O)c3ccccc3oc2=O)c2c(C)n(C)n(-c3ccccc3)c2=O)cc1 (stereo not given)
5	Cc1ccccc1-c1nc(CS(=O)CC(=O)N2CCC3(CC2)OCCO3)c(C)o1 (stereo not given)
6	C#C[C@@]1(O)CCC2C3CCC4=C/C(=N/OCC(=O)NC(C(=O)O)C(C)O)CC[C@]4(C)C3CC[C@@]21C (stereo not given in full)
7	COc1cc2[nH]c(=S)n(-c3ccccc3)c(=O)c2cc1OC
8	CNc1cc(N2CCN(C)CC2)ccc1[N+](=O)[O-]

assay / compound	1	2	3	4	5	6	7	8
TDP1 inh	11.0%&8.2%&-5.5%	nt	-1.0%	4.9%	-11.3%	nt	-7.4%	2.7%
FEN1 inhibitor	0.2%	-6.9%	-1.1%	20.1%	-0.2%	-0.3%	18.4%	-3.9%

9	COc1ccc(F)cc1C(=O)C1CCCN(Cc2ccc(O)cc2)C1 (stereo not given)
10	CC(C)n1c(=O)c(C=Nc2ccc(Cl)cc2)c(O)n(Cc2ccco2)c1=O
11	COc1ccccc1N1CCN(Cc2c(F)cccc2F)CC1
12	COP(=O)(OC)C(NC(=O)C(C)(C)C)=C(Cl)Cl
13	COc1ccc2c(c1OC)CN1CCc3cc4c(cc3C1C2)OCO4 (stereo not given)
14	Cc1nn(Cc2ccccc2)c(C)c1C(=O)OCC(=O)NC1CCS(=O)(=O)C1 (stereo not given)
15	CN1CCC2(CC1)CC(NC=O)c1ccccc1O2 (stereo not given)
16	Nc1c(Br)cc(Br)cc1CNC1CCC(O)CC1 (stereo not given)

assay / compound	9	10	11	12	13	14	15	16
TDP1 inh	4.0%	5.5%	0.0%	-2.0%	nt	-1.2%	2.5%	4.3%
FEN1 inhibitor	7.3%	nt	5.5%	-2.1%	6.4%	7.8%	1.0%	21.1%&3.6%

17	CCn1c(=O)n(CC(=O)N2CCC3(CC2)OCCO3)c(=O)c2ccccc21
18	CSc1ccc(C(=O)C2CCCN(C)C2)cc1 (stereo not given)
19	CN(C)/C=C(\C=[N+](C)C)c1[nH]ncc1[N+](=O)[O-]
20	FC(F)(F)c1ccccc1CN1CCN(Cc2ccccc2)CC1
21	COc1ccc2c3c1OC1C(=O)CC[C@@]4(O)[C@@H](C2)N(CC2CC2)CC[C@]314 (stereo not given in full)
22	c1ccc2c(c1)CNc1ccccc1O2
23	NC(Cc1ccccc1)c1nc2ccccc2[nH]1 (stereo not given)
24	CSc1ccc(C(=O)C(C)(C)N2CCOCC2)cc1

assay / compound	17	18	19	20	21	22	23	24
TDP1 inh	7.8%	2.7%	2.7%	-5.6%	0.2%	10.4%	nt	-1.1%
FEN1 inhibitor	-7.8%	3.9%	-4.3%	0.6%	-0.8%	-3.8%	-2.5%	-1.1%

25	CCOc1c(P(=S)(N(C)C)N(C)C)c(C)nn1-c1ccccc1
26	CCCCCn1c(=O)c(C(=O)Nc2ccccc2N)c(O)c2ccccc21
27	c1ccc2c(CCNC3=NCCC3)c[nH]c2c1
28	O=C(Cc1ccccc1)N1CCN(CC2CC3C=CC2C3)CC1 (stereo not given)
29	COC(=O)c1ccccc1NC(=O)N1C[C@@H]2C[C@@H](C1)c1cccc(=O)n1C2
30	CN1C(=O)CN=C(c2ccc(Cl)cc2)c2cc(Cl)ccc21
31	O=c1c2ccccc2nc(-c2ccc(-c3ccccc3)cc2)n1-c1ccncc1
32	Cc1ccccc1-n1c(O)c(/C=N/N2CCOCC2)c(=O)[nH]c1=S

assay / compound	25	26	27	28	29	30	31	32
TDP1 inh	-3.1%	nt	5.1%	nt	nt	8.4%	9.5%	7.9%
FEN1 inhibitor	5.8%	-17.2%	8.9%	4.0%	7.9%	1.5%	-7.5%	-10.7%

33	O=C(/C=C/c1ccccc1)NC(=S)N1C[C@H]2C[C@H](C1)c1cccc(=O)n1C2
34	COc1ccc(NC(=O)N2CCC3(CC2)OCCO3)c(OC)c1
35	CCCCP(=O)(O)CCC(=O)O
36	CC1=NCCc2c1[nH]c1ccccc21
37	O=C(c1ccc(C(F)(F)F)cc1)C1CCCN(Cc2ccc(CO)o2)C1 (stereo not given)
38	Cc1ccc(-n2c(O)c(/C=C/C=Nc3ccccc3)c(=O)[nH]c2=O)cc1

assay / compound	33	34	35	36	37	38
TDP1 inh	nt	1.2%	4.8%	10.3%	8.1%	5.3%
FEN1 inhibitor	-1.3%	-5.8%	-2.0%	?	11.9%	-17.7%

By substructure, the compounds so far containing a carbonyl joined to an NH by a bond outside any ring
4	CC(=O)Nc1ccc(C(c2c(O)c3ccccc3oc2=O)c2c(C)n(C)n(-c3ccccc3)c2=O)cc1 (stereo not given)
6	C#C[C@@]1(O)CCC2C3CCC4=C/C(=N/OCC(=O)NC(C(=O)O)C(C)O)CC[C@]4(C)C3CC[C@@]21C (stereo not given in full)
12	COP(=O)(OC)C(NC(=O)C(C)(C)C)=C(Cl)Cl
14	Cc1nn(Cc2ccccc2)c(C)c1C(=O)OCC(=O)NC1CCS(=O)(=O)C1 (stereo not given)
15	CN1CCC2(CC1)CC(NC=O)c1ccccc1O2 (stereo not given)
26	CCCCCn1c(=O)c(C(=O)Nc2ccccc2N)c(O)c2ccccc21
29	COC(=O)c1ccccc1NC(=O)N1C[C@@H]2C[C@@H](C1)c1cccc(=O)n1C2
33	O=C(/C=C/c1ccccc1)NC(=S)N1C[C@H]2C[C@H](C1)c1cccc(=O)n1C2
34	COc1ccc(NC(=O)N2CCC3(CC2)OCCO3)c(OC)c1

assay / compound	4	6	12	14	15	26	29	33	34
TDP1 inh	4.9%	nt	-2.0%	-1.2%	2.5%	nt	nt	nt	1.2%
FEN1 inhibitor	20.1%	-0.3%	-2.1%	7.8%	1.0%	-17.2%	7.9%	-1.3%	-5.8%

Source: PubChem BioAssay (National Center for Advancing Translational Sciences (NCATS))
